VDR inhibitor: Inhibitors of the vitamin D receptor (VDR): qHTS; Vitamin D3 receptor (Homo sapiens), P11473; VDR-SRC2-3 peptide fluorescence polarization, 2 h; Potency, µM, for the others: max response, negative = inhibition, actives largely listed as inhibitors; hit rate 0.93% among 400,000; active means well fitted inhibition curve with a large enough effect; further: series mostly up to about 120 µM
Target sequence (P11473 whole entry, looked up): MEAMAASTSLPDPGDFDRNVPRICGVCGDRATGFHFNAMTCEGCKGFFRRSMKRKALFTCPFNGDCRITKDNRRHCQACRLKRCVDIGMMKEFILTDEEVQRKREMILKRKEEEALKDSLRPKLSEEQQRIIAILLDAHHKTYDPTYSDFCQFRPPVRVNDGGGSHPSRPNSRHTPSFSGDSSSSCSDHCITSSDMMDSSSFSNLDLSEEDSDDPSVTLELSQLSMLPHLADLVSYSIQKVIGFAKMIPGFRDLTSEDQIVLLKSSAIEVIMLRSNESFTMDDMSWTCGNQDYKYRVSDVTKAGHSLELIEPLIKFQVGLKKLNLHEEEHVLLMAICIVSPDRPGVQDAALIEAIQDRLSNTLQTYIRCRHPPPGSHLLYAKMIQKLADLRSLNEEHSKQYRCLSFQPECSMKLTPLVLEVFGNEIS
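FP read-out; VDR + SRC2-3 coactivator peptide; 23 nl compound by pintool; 2 h RT incubation; reagents held at 4 deg C, protected from light.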
* hit, by the source's call; & = joins results of further samples. On the % scale 0 is the no-effect control and ±100 the full control effect; potency means the concentration at half of the fitted maximal effect. These rows are one share of the data. The share of hits here may be higher or lower than overall.

SMILES	VDR inhibitor
CCc1ccc(-c2cc3c(=O)n(CC(=O)NCCCN4CCN(Cc5ccccc5)CC4)nc(C)n3n2)cc1	20%
CC(C)(Oc1ccc(Cl)cc1)C(=O)NC1=NN(c2ccccc2)C(=O)C1	-19%
Cc1ccc(S(=O)(=O)c2cc3c(=O)n4ccccc4nc3n(CCc3ccccc3)c2=N)cc1	4%
Oc1ccc(/C=N/Nc2ccnc3cc(Cl)ccc23)c(O)c1O	-10%
C/C(=N\NC(=O)c1csc(C)c1C)c1ccc(Cl)s1	-16%
O=C(c1ccc(F)cc1)N1CCN2C(=O)c3ccccc3C12c1ccc(Cl)cc1 (centres undefined)	-1%
Cc1cc(C)n(CCCNC(=O)c2ccco2)n1	4%
COc1ccc(/C=N/OCc2nc3c4c(ncn3n2)Oc2ccc3ccccc3c2C4c2ccccc2)cc1 (centres undefined)	0%
CC1CCCN(C(=O)CNS(=O)(=O)c2cccs2)C1 (centres undefined)	2%
COCCN(C(=O)COC(=O)CCOc1ccccc1C)c1c(N)n(Cc2ccccc2)c(=O)[nH]c1=O	-15%
O=c1[nH][nH]c(=S)n1C1CCCCC1	35µM*
Cc1c(NS(=O)(=O)c2ccc(N3CCCCC3)c([N+](=O)[O-])c2)c(=O)n(-c2ccccc2)n1C	-18%
Cc1ccc2nc(-c3ccncc3)cc(-c3ccccc3)c2c1	10%
CCOC(=O)/C=C1\SCC(=O)N1CC(=O)NC(C)c1ccc(F)cc1 (centres undefined)	-3%
CCCCC(=O)Oc1c(S(=O)(=O)c2ccccc2)c(C)nn1C(C)(C)C	5%
Cc1cc(C)n(Cc2ccccc2F)c(=O)c1C#N	-3%
Cc1ccc(Cl)cc1N1CCN(Cc2cc(=O)n3ccsc3n2)CC1	-26%
Cc1nc(C)n(C(C)CNC(=O)c2ccccc2)n1 (centres undefined)	-17%
CCc1cccc(C)c1NS(=O)(=O)c1cc(Br)cnc1N	2%
COc1ccccc1N1CCN(S(=O)(=O)/C=C/c2ccccc2)CC1	-6%
COc1ccc(C(=O)NC2CCN(CC(=O)Nc3cccc(OC)c3)CC2)cc1	-4%
CCCn1c2ccccc2c2nnc(SC(CC)C(=O)Nc3sc4c(c3C#N)CCCC4)nc21 (centres undefined)	8%
O=C(COC(=O)C1COc2ccccc2O1)Nc1cccc(Cl)c1 (centres undefined)	-2%
COc1cccc(C(=O)Nc2ccccc2-c2nc(-c3ccc(C)cc3)no2)c1	21%
COC(=O)c1ccc(CN2CCC(CO)(Cc3ccccc3Cl)CC2)cc1	5%

Brought forward from above: 2 compounds, then new ones.
SMILES	VDR inhibitor
COc1cccc(C(=O)Nc2ccccc2-c2nc(-c3ccc(C)cc3)no2)c1	21%
COC(=O)c1ccc(CN2CCC(CO)(Cc3ccccc3Cl)CC2)cc1	5%
CC(C)c1csc(CN2CCN(Cc3ccc(F)c(F)c3)C(CCO)C2)n1 (centres undefined)	9%
COc1ccc(CCNC(=O)c2[nH]c(C)c(C(C)=O)c2C)cc1	7%
O=C1N=c2ccccc2=C1c1sc(=S)n(-c2ccc(O)cc2)c1O	-4%
COc1ccc(NS(=O)(=O)c2cc(NC(=O)C3CCCCC3)ccc2N2CCOCC2)cc1	11%
Cc1ccc(CCN2CC(C(=O)NCCN3CCCCCC3)CC2=O)cc1 (centres undefined)	-4%
COc1ccc(OC)c(-c2nnc3n2N=C(c2ccc(OC)c(OCC4CC4)c2)CS3)c1	12%
Cc1c(C(=O)/C=C/N(C)C)nnn1-c1ccc(Cl)cc1Cl	5%
Cc1ccc(C)c(N(C)C(=O)CCNC(=O)Cn2cnc3ccccc3c2=O)c1	5%
CCc1ccc(NC(=O)NC2CCCCCCC2)cc1	-5%
CC1CCCCN1C(=O)c1ccc(C(=O)Nc2ccc(F)cc2)cc1 (centres undefined)	-4%
CN1CCN(Cc2nc3ccccc3c(=O)n2Cc2nc(-c3cccc([N+](=O)[O-])c3)cs2)CC1	-10%
Cc1ccc(N2CCN(c3ncnc4onc(-c5ccc(F)cc5)c34)CC2)c(C)c1	0%
CNS(=O)(=O)c1cnccc1N1CCN(c2cccc(C)c2)CC1	3%
Clc1ccc2c(NCCNC3CCCCC3)ccnc2c1	8%
CC(C)(CO)CNC(=O)c1ccc2nc(Cc3cccc(Cl)c3)oc2c1	-10%
COc1ccc(OC)c(NC(=O)CSc2nc3ccccc3nc2N2CCCCC2)c1	-17%
COc1ccc(C2c3c(ncn(CCCN4CCOCC4)c3=N)Oc3ccc4ccccc4c32)cc1OC (centres undefined)	-6%
COc1cccc(CC(NC(C)=O)C(=O)NC2CCN(C(=O)NCc3ccccc3)CC2)c1 (centres undefined)	-16%
O=C(COC(=O)C1=COCCO1)NCCCc1ccccc1	10%
O=C1CCC[C@@H]2Cc3nc4ccccc4cc3[C@@H]3CCN1[C@H]23	0%
COc1ccc(N(C)S(=O)(=O)c2cccc(C(=O)Nc3nnc(C4CC4)s3)c2)cc1	-16%
CC(=O)NNS(=O)(=O)c1ccccc1[N+](=O)[O-]	0%
COc1ccc(C(=O)OCC(=O)Nc2ccc(Cl)c(C(F)(F)F)c2)c(OC)c1OC	0%
Cc1ccc(C(=O)COC(=O)CCCC(=O)Nc2cc(C(F)(F)F)ccc2Cl)cc1C	15%&6%
Cc1ccc(C(=O)C[n+]2ccccc2C)cc1[N+](=O)[O-]	12%

5 compounds picked at random from those above, as already listed:
SMILES	VDR inhibitor
O=C(COC(=O)C1=COCCO1)NCCCc1ccccc1	10%
COc1ccc(CCNC(=O)c2[nH]c(C)c(C(C)=O)c2C)cc1	7%
CCc1ccc(NC(=O)NC2CCCCCCC2)cc1	-5%
COc1ccc(N(C)S(=O)(=O)c2cccc(C(=O)Nc3nnc(C4CC4)s3)c2)cc1	-16%
Clc1ccc2c(NCCNC3CCCCC3)ccnc2c1	8%

Records listed so far printed as active in VDR inhibitor.
SMILES	VDR inhibitor
O=c1[nH][nH]c(=S)n1C1CCCCC1	35µM*

Next part:
SMILES	VDR inhibitor
O=C(NCCc1ccc(Cl)cc1)c1cc(=O)[nH]c2ccccc12	16%
CCc1cccc(NC(=O)NC2CCCCC2)c1	-13%
Cc1cc(C(=O)CSc2nnc(-c3ccccc3)o2)c(C)n1CC1COc2ccccc2O1 (centres undefined)	14%
CC(CC(=O)OCC(=O)NCc1ccc(Cl)cc1)c1ccccc1 (centres undefined)	5%
COc1ccc(NC(=O)Cc2cccc(F)c2)cc1S(=O)(=O)Nc1ccccc1Cl	0%
O=S(=O)(Cc1ccccc1)N1CCCCCC1	-6%
CCN1CCSc2ccc(C(=O)NCc3cccc(F)c3)cc21	-5%&-5%
COC(=O)c1sccc1NC(=S)Nc1ccc(F)cc1F	-16%
Fc1ccc(NC(=S)N2CCn3cccc3C2c2cccnc2)cc1 (centres undefined)	-2%
COc1ccc(-c2nc(C#N)c(NCc3ccccc3Cl)o2)cc1OC	3%
CCN1CC2CCCC3(C1)C(=O)NC1(CCCCC1)N=C23 (centres undefined)	7%
CCOc1ccc(-n2c(=O)c3c4c(sc3n(Cc3cc(=O)n5cc(Cl)ccc5n3)c2=O)CCC4)cc1	-1%
Cc1[nH][nH]c(=O)c1C(c1ccc(-c2ccc(F)cc2)o1)c1c(C)[nH][nH]c1=O	32µM*
COc1ccc(CCNc2cc(C)nc3c(-c4ccccc4)cnn23)cc1OC	16%
CN(C)S(=O)(=O)Oc1ccsc1C(=O)Nc1ccc(Cl)cc1	-9%
N/C(=N\OC(=O)c1ccc2c(c1)OCO2)c1ccc(Cl)cc1	-7%

Of the compounds above, 3 contain an aryl thioether with sulfur outside any ring.
SMILES	VDR inhibitor
CCCn1c2ccccc2c2nnc(SC(CC)C(=O)Nc3sc4c(c3C#N)CCCC4)nc21 (centres undefined)	8%
COc1ccc(OC)c(NC(=O)CSc2nc3ccccc3nc2N2CCCCC2)c1	-17%
Cc1cc(C(=O)CSc2nnc(-c3ccccc3)o2)c(C)n1CC1COc2ccccc2O1 (centres undefined)	14%

High-throughput results deposited in PubChem BioAssay by National Center for Advancing Translational Sciences (NCATS).
